Screening data deposited in PubChem by SRMLSC.
H5N1 CPE: antiviral screen in MDCK cells, H5N1 avian flu; 96,000 tested, 0.07% active; cytopathic effect, luminescence, 72 h; hits give high values; no value below 0 was filed and about half of the inactive calls have no number; reference of the scale not given here; AID 740; inhibition, % at 50 µM; in the data active = inhibition above about 25%
An asterisk follows results filed as active. Only part of the results is shown, so the mix of outcomes need not match the whole.

For Cc1c(S(=O)(=O)Nc2ccc3c(c2)OCCO3)c(=O)n(C)c(=O)n1C the results were H5N1 CPE 1.1.
COc1ccc2nc(NC(=O)c3cnccn3)sc2c1 was read as H5N1 CPE inactive.
`CN1C(=O)N(C)C2(c3ccccc3)NC(=O)NC12c1ccccc1` (stereo not drawn) gave H5N1 CPE inactive.
O=C(Cn1nnc(-c2ccc(S(=O)(=O)N3CCCC3)cc2)n1)Nc1ccccc1-n1cccc1 was read as H5N1 CPE 1.4.
Screening O=C(C1CCC1)N(CCc1ccccc1)Cc1nc2ccccc2c(=O)[nH]1 returned H5N1 CPE inactive.
Screening O=C(Cn1cnc2c(cnn2-c2ccc(F)cc2)c1=O)OCc1ccccc1 returned H5N1 CPE inactive.
For Cn1cc([N+](=O)[O-])c(C(=O)Nc2nc(-c3ccc(Cl)cc3)cs2)n1 the results were H5N1 CPE inactive.
For O=C(Cc1c(F)cccc1Cl)NCC1CCCO1 (stereo not drawn) the results were H5N1 CPE inactive.
For CN1CCN(C(=O)c2cc3c(ccc4ccccc43)oc2=O)CC1 the results were H5N1 CPE 1.1.
CN(C1CCCCC1)S(=O)(=O)c1ccc(S(=O)(=O)N2CCCC2)cc1 was read as H5N1 CPE 3.2.
O=C(Nc1ccccc1N1CCCCC1)c1ccc(F)cc1 was read as H5N1 CPE 1.9.
For CC(C)C(=O)Nc1nnn(C)n1 the results were H5N1 CPE inactive.
For CN1C(=O)CC(NNC(=O)c2ccc(Cl)cc2)C1=O (stereo not drawn) the results were H5N1 CPE inactive.
c1ccc(Cn2nnnc2C(c2cccs2)N2CCCCCC2)cc1 (stereo not drawn) was read as H5N1 CPE 20.
For Cc1onc(-c2ccccc2)c1C(=O)NCc1ccco1 the results were H5N1 CPE 3.6.
Screening COc1cc(-c2nc3cnccn3c2Nc2c(C)cccc2C)ccc1O returned H5N1 CPE inactive.
Cc1ccccc1-n1c(Cn2c(=O)sc3ccccc32)nnc1SCC(=O)Nc1nccs1 was read as H5N1 CPE 0.0.
Screening Cc1cccc(NC(=O)c2cc(S(=O)(=O)c3ccccc3)ccc2Cl)c1 returned H5N1 CPE 0.6.
`Fc1cccc(-c2cc3nc4c(c(N5CCOCC5)n3n2)CCCC4)c1` gave H5N1 CPE 2.5.
`CC(C)C1=C2CCCCC2NC(=O)N1` (stereo not drawn) gave H5N1 CPE inactive.
For c1ccc2c(Nc3nc4c(s3)CCCC4)cccc2c1 the results were H5N1 CPE inactive.
For CCOC(=O)C1CCCN(c2c(NCCCN3CCCC(C)C3)c(=O)c2=O)C1 (stereo not drawn) the results were H5N1 CPE 0.9.
For CN(C(=O)CN1CCC(NC(=O)C2CCCCC2)CC1)C1CCCCC1 the results were H5N1 CPE inactive.
Screening CC(C)Oc1ccc(C2NC(=O)NC2=O)cc1 (stereo not drawn) returned H5N1 CPE 0.2.
Screening CC1=C(C(=O)OC(C)C)C(C)C(C(=O)OC(C)C)=C(C)N1 returned H5N1 CPE inactive.
CCNc1nc(NCC)nc(OCCNS(=O)(=O)c2cc(C)ccc2C)n1 was read as H5N1 CPE 1.6.
Screening O=C(NC[P+](=O)O)OCc1ccccc1 returned H5N1 CPE inactive.
Screening O=C(CN1C(=O)CCSc2ccccc21)Nc1ccccc1 returned H5N1 CPE 0.5.
`COCCCn1c2nc3ccccc3nc2c2c(=O)n(-c3ccccc3OC)cnc21` gave H5N1 CPE 0.6.
Screening CCCc1cc(=O)n2[nH]c(C)nc2n1 returned H5N1 CPE inactive.

For convenience, some entries already given.
Screening CC(C)Oc1ccc(C2NC(=O)NC2=O)cc1 (stereo not drawn) returned H5N1 CPE 0.2.
Screening CC1=C(C(=O)OC(C)C)C(C)C(C(=O)OC(C)C)=C(C)N1 returned H5N1 CPE inactive.
CCNc1nc(NCC)nc(OCCNS(=O)(=O)c2cc(C)ccc2C)n1 was read as H5N1 CPE 1.6.
Screening O=C(NC[P+](=O)O)OCc1ccccc1 returned H5N1 CPE inactive.
Screening O=C(CN1C(=O)CCSc2ccccc21)Nc1ccccc1 returned H5N1 CPE 0.5.
`COCCCn1c2nc3ccccc3nc2c2c(=O)n(-c3ccccc3OC)cnc21` gave H5N1 CPE 0.6.
Screening CCCc1cc(=O)n2[nH]c(C)nc2n1 returned H5N1 CPE inactive.

Further compounds follow.
`CCN(CC)S(=O)(=O)c1ccc(NC(=O)c2ccccc2N(C)S(C)(=O)=O)cc1` gave H5N1 CPE 0.4.
`CN1CCN(c2ccc(S(=O)(=O)N3CCCCC3)cn2)CC1` gave H5N1 CPE 0.6.
`COc1cccc(Oc2cn[nH]c2-c2ccc(O)cc2O)c1` gave H5N1 CPE inactive.
For CCCCn1c(SCC(=O)N2CC(=O)Nc3ccccc32)nnc1-c1ccoc1C the results were H5N1 CPE 0.7.
Screening CC(C)NC(=O)NC(=O)COC(=O)c1ccccc1Oc1ccccc1 returned H5N1 CPE inactive.
Screening COc1cccc(C(CC(=O)NCCN2CCOCC2)NS(=O)(=O)c2ccc(C)cc2)c1OC (stereo not drawn) returned H5N1 CPE inactive.
Cc1nn(Cc2c(F)c(F)c(F)c(F)c2F)c(C)c1NC(=O)c1ccc(COc2cc(Cl)ccc2Cl)cc1 was read as H5N1 CPE inactive.
`O=C(COc1ccccc1)Nc1nn[nH]n1` gave H5N1 CPE inactive.
For CCCn1nc(NS(C)(=O)=O)c2cc3cccc(C)c3nc21 the results were H5N1 CPE 0.6.
Screening COCCN(CC(=O)NC1CCCCC1)C(=O)c1csnn1 returned H5N1 CPE inactive.
CC1CCCCC1NC(=O)COC(=O)COc1ccc(Cl)cc1 (stereo not drawn) was read as H5N1 CPE 0.4.
Screening COCCn1c(-c2ccsc2)nc2c1c(=O)[nH]c(=O)n2CC(C)C returned H5N1 CPE 2.3.
Screening O=C(CSCSCC(=O)NCC1CCCO1)NCC1CCCO1 (stereo not drawn) returned H5N1 CPE 0.5.
CCCCNCCCOc1cccc(Cl)c1 was read as H5N1 CPE 0.1.
Screening O=C(C1CC(c2ccc(F)cc2)=NO1)N1CCCc2ccccc21 (stereo not drawn) returned H5N1 CPE inactive.
Screening COc1cc(Br)c(C(C)NC(=O)c2ccccc2)cc1OC (stereo not drawn) returned H5N1 CPE inactive.
C=C1CSc2nc(=O)c3c4c(sc3n21)CCCC4 was read as H5N1 CPE 4.5.
CCOC(=O)c1c(C)[nH]c(C(=O)COC(=O)c2ccccc2NC(=O)c2ccco2)c1C was read as H5N1 CPE inactive.
CCOc1ccccc1OCCCOc1ccc(C)cc1Br was read as H5N1 CPE 1.6.
`COc1cccc(-c2nc(S(=O)(=O)c3ccccc3)c(N3CCOCC3)o2)c1` gave H5N1 CPE 1.4.
Screening COc1cc(SC)ccc1C(=O)NCCOc1c(C)cc(C)cc1C returned H5N1 CPE 0.8.
`CCOC(=O)C1CCN(C(=O)C2CCN(S(=O)(=O)c3c(C)noc3C)CC2)CC1` gave H5N1 CPE inactive.
`O=C(CCCN1C(=O)c2ccccc2C1=O)NC1CCCCCC1` gave H5N1 CPE 0.0.
CC1(C)Nc2ccc(O)cc2-c2c1ssc2=S was read as H5N1 CPE 1.1.
`COc1cc2c(cc1OC)-c1nnc(-c3cccs3)n1C1(CCCC1)C2` gave H5N1 CPE 2.2.
Screening Cc1occc1C(=O)Nc1cccc(C(=O)NCc2ccccc2)c1 returned H5N1 CPE 1.2.
For O=C(OCc1nc2ccccc2s1)[C@@H]1CCCN1S(=O)(=O)c1ccccc1F the results were H5N1 CPE inactive.
For CCOC(=O)Nc1ccccc1N1C(=O)c2ccccc2C1=O the results were H5N1 CPE inactive.
CCOC(=O)c1sc(N)nc1C(C)C was read as H5N1 CPE inactive.
For CCc1ccc(C(=O)NCC2COc3ccccc3O2)o1 (stereo not drawn) the results were H5N1 CPE 1.0.

7 compounds drawn at random from those above:
`COCCCn1c2nc3ccccc3nc2c2c(=O)n(-c3ccccc3OC)cnc21` gave H5N1 CPE 0.6.
Screening O=C(CSCSCC(=O)NCC1CCCO1)NCC1CCCO1 (stereo not drawn) returned H5N1 CPE 0.5.
`CN1CCN(c2ccc(S(=O)(=O)N3CCCCC3)cn2)CC1` gave H5N1 CPE 0.6.
`COc1cccc(Oc2cn[nH]c2-c2ccc(O)cc2O)c1` gave H5N1 CPE inactive.
For CCc1ccc(C(=O)NCC2COc3ccccc3O2)o1 (stereo not drawn) the results were H5N1 CPE 1.0.
`CN1C(=O)N(C)C2(c3ccccc3)NC(=O)NC12c1ccccc1` (stereo not drawn) gave H5N1 CPE inactive.
Screening Cc1occc1C(=O)Nc1cccc(C(=O)NCc2ccccc2)c1 returned H5N1 CPE 1.2.

New compounds follow
`Cc1nc2ccc(N)cc2c(=O)n1Cc1ccc(Cl)cc1` gave H5N1 CPE 0.3.
For Cc1c(Br)c([N+](=O)[O-])nn1CC(=O)NCc1ccccn1 the results were H5N1 CPE 0.1.
O=C(N/N=C\c1ccc(-c2ccccc2[N+](=O)[O-])o1)C1COc2cc3ccccc3cc2O1 (stereo not drawn) was read as H5N1 CPE 1.0.
For Cc1cc(CC(C)C)n(-c2nc3ccccc3c(=O)n2OCC(N)=O)n1 the results were H5N1 CPE 0.9.
Screening COCn1c(-c2cccc(Br)c2)nc2ccccc21 returned H5N1 CPE inactive.
For CCOC(=O)NC1(C(F)(F)F)C(=O)N(Cc2ccccc2)C2=C1C(=O)CC(C)(C)C2 (stereo not drawn) the results were H5N1 CPE 0.2.
Screening COC(=O)c1ccc(OCCN2C3=NCCN3c3ccccc32)cc1 returned H5N1 CPE 0.9.
Screening COc1ccc2[nH]c(=O)c(C(c3nnnn3C3CCCC3)N3CCN(Cc4ccc5c(c4)OCO5)CC3)cc2c1 (stereo not drawn) returned H5N1 CPE inactive.
For CN1CCN(c2ccc(NC(=O)Oc3ccccc3)cc2)CC1 the results were H5N1 CPE inactive.
For Cc1ccc(SCCNC(=O)/C=C/c2ccccc2Cl)cc1 the results were H5N1 CPE inactive.
For Cn1c(SCC(=O)N2CCOCC2)nnc1-c1ccc(NC(=O)c2ccccc2F)cc1 the results were H5N1 CPE inactive.
Screening Cc1cc(S(=O)(=O)N(C)CCc2ccccc2)ccc1-n1cnnn1 returned H5N1 CPE 0.7.
`Cc1cc(=O)n2nc(N3CCC(C(=O)N4CCN(Cc5ccccc5)CC4)CC3)sc2n1` gave H5N1 CPE 1.3.
CCOC(=O)c1c(NC(=O)C2c3ccccc3Oc3ccccc32)sc(C(N)=O)c1C was read as H5N1 CPE 0.3.
CCOc1c2ccc(C(=O)NCc3ccc4c(c3)OCO4)cc2nn1CC was read as H5N1 CPE 0.2.
C=CCSc1nc(Cc2ccc(Cl)cc2)nc2ccccc12 was read as H5N1 CPE inactive.
`CC1(C)CC(=O)N(CC(=O)NCc2ccccc2)c2ccccc2S1(=O)=O` gave H5N1 CPE inactive.
`O=C(N/N=C\c1ccc(CN(Cc2ccc(Cl)cc2)S(=O)(=O)c2ccccc2)o1)C(=O)Nc1ccc(F)cc1` gave H5N1 CPE inactive.
Screening O=C(O)CC1CCC(=C(Cl)Cl)C1 (stereo not drawn) returned H5N1 CPE inactive.
`Cc1ccc(NC(=O)c2sc3nc4c(c(-c5ccco5)c3c2N)CCC4)cc1` gave H5N1 CPE 0.2.
For COc1ccc(CCC(=O)NCCc2cn3c(C)csc3n2)cc1 the results were H5N1 CPE 0.1.
For O=C1c2ccccc2C(=O)N1CCSc1nncs1 the results were H5N1 CPE inactive.
`CC(=O)c1ccc(OCCCN2CCCCC2)cc1` gave H5N1 CPE 0.1.
For O=C(CSc1nnc(C2CC2)n1-c1ccccc1)NCCc1ccccc1 the results were H5N1 CPE inactive.
Screening N#CC(=C1CCCC1)c1nc(-c2ccc(Cl)cc2)cs1 returned H5N1 CPE 0.7.
For COc1ccc2c(c1)[nH]c1c(=O)n(CCc3cnc[nH]3)cnc12 the results were H5N1 CPE 0.6.
For COc1ccc(CCNC(=O)C2CCN(S(C)(=O)=O)CC2)cc1OC the results were H5N1 CPE inactive.
`CC(=O)N(CCP(=O)(c1ccccc1)c1ccccc1)Cc1ccco1` gave H5N1 CPE inactive.
`CC(=O)Nc1cc(C(=O)N2CCOCC2)ccc1S(=O)(=O)c1ccc(C)cc1` gave H5N1 CPE inactive.
Screening COc1ccc(C(=O)NCCNC(=O)c2cc(OCC(F)(F)F)ccc2OCC(F)(F)F)cc1 returned H5N1 CPE 1.4.
`O=C(NCc1ccco1)c1cc(C(=O)C2CC2)c[nH]1` gave H5N1 CPE 1.2.
`CCc1nnc(NC(=O)CSc2nnc(-c3ccccc3OC)n2-c2ccccc2)s1` gave H5N1 CPE inactive.
O=C(CSCCO)Nc1cccc2ccccc12 was read as H5N1 CPE 1.3.
Screening CC(C)OC(=O)CC(=O)CSc1nc2c(cc1C#N)CCCC2 returned H5N1 CPE 0.8.
Screening COc1ccc2c(c1OC)C(=O)N1N=C(c3ccccc3)CC21 (stereo not drawn) returned H5N1 CPE 1.1.
`CNC(=S)N(Cc1ccc(OC)cc1)C1CC(=O)N(c2ccc(Cl)cc2)C1=O` (stereo not drawn) gave H5N1 CPE inactive.
CCc1nc(NCC2CCCN2CC)c2nnn(Cc3ccccc3F)c2n1 (stereo not drawn) was read as H5N1 CPE inactive.
For Oc1ccccc1Oc1ncc(Br)c(N2CCOCC2)n1 the results were H5N1 CPE inactive.
O=C(O)COc1ccccc1C1C2C(=O)N(c3ccc(F)cc3)C(=O)C2ON1c1ccccc1 (stereo not drawn) was read as H5N1 CPE 0.8.
For CCCC(=O)Nc1ccc2oc(-c3ccc(OC)c(Br)c3)nc2c1 the results were H5N1 CPE inactive.
For CN(C)S(=O)(=O)c1cccc(C(=O)OCC(=O)N2c3ccccc3NC(=O)C2(C)C)c1 the results were H5N1 CPE 0.5.
For CCSc1ncc(/C=N/Nc2ccc(F)cc2)n1C the results were H5N1 CPE inactive.
O=C(NNC(=O)c1ccccc1-n1cccc1)c1ccccc1 was read as H5N1 CPE inactive.
For O=C(Nc1ccc(F)cc1)c1oc2ccccc2c1NC(=O)C1CCCC1 the results were H5N1 CPE inactive.
`Cc1ccnc2ccc(-c3nc4ccccc4o3)cc12` gave H5N1 CPE inactive.

Gathered by group, the compounds so far containing a COOH group (2)
Screening O=C(O)CC1CCC(=C(Cl)Cl)C1 (stereo not drawn) returned H5N1 CPE inactive.
O=C(O)COc1ccccc1C1C2C(=O)N(c3ccc(F)cc3)C(=O)C2ON1c1ccccc1 (stereo not drawn) was read as H5N1 CPE 0.8.
